# Compound activity (PubChem BioAssay)
# Mtb bLac sens = beta-lactam sensitization of Mtb H37Rv, H37Rv | inhibition, % at 25 µM | 330,000 tested, 0.27% active | M. tuberculosis H37Rv growth with meropenem, percent inhibition; hits of this screen are not shown here;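 active = about 74% or more and at least 40 points above the plate without the antibiotic, then above 30% in a dose series; inconclusive = first-round hits that could not be retested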;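 note: growth measured after seven days incubation then overnight dye step; 0% = bacteria only wells and 100% = bacteria with antibiotic; twin plates without the antibiotic show which effects depend on it; some results filed as inactive read as strong as hits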
# YopH PTP inh = YopH tyrosine phosphatase inhibitors, primary screen, biochemical, fluorescence Ex485/Em525; 140,000 tested, 0.16% active; YopH tyrosine phosphatase [Yersinia enterocolitica]; inhibition, %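 (about 10 µM by stock and volumes)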; AID 898, 2007;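 active = inhibition of 50% or more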;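 note: controls were vehicle for no effect and minimum signal wells for full effect; inactives centre near -20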
# Arbovirus anti = antivirals against arbovirus infection, primary screen, cell-based, full library, 10K replicate subset; inhibition, % at 10 µM; 200,000 tested, 0.37% active; arbovirus infection cell-based antiviral screen; AID 1251, 2008;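 active = inhibition from about 30%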;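 note: bluetongue infection of BSR cells; cell survival read as ATP light after 72 h; 0% = infected wells without compound and 100% = uninfected wells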
# Mtb growth = M. tuberculosis H37Rv growth inhibitors, H37Rv strain (AID 1626). M. tuberculosis H37Rv growth inhibition; higher % means a stronger effect. inhibition, % at 10 µM; hits with a dose series show IC50 in µM. 220,000 tested, 0.95% active;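 active = confirmed in a dose series; inconclusive = inhibition above 80% but not taken into the dose series; inactive = below 80% or under 30% at every dose of the series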;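 note: bacteria incubated seven days before Alamar blue readout; 0% = bacteria only wells and 100% = bacteria with antibiotic wells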
# RecA splice inh = Mtb RecA intein splicing inhibitors, primary screen, biochemical, fluorescence, HTS | Protein RecA (Mycobacterium tuberculosis (strain ATCC 25618 / H37Rv)), P9WHJ3 | cell-free RecA intein splicing | inhibition, %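 (about 9 µM by stock and volumes)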 | 290,000 tested, 0.75% active; in the data active = inhibition above about 30%; inconclusive = no clear call, values can overlap the other calls;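 note: 0% = vehicle wells and 100% = reference inhibitor control wells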
# Target sequence (P9WHJ3 whole entry, looked up, canonical isoform): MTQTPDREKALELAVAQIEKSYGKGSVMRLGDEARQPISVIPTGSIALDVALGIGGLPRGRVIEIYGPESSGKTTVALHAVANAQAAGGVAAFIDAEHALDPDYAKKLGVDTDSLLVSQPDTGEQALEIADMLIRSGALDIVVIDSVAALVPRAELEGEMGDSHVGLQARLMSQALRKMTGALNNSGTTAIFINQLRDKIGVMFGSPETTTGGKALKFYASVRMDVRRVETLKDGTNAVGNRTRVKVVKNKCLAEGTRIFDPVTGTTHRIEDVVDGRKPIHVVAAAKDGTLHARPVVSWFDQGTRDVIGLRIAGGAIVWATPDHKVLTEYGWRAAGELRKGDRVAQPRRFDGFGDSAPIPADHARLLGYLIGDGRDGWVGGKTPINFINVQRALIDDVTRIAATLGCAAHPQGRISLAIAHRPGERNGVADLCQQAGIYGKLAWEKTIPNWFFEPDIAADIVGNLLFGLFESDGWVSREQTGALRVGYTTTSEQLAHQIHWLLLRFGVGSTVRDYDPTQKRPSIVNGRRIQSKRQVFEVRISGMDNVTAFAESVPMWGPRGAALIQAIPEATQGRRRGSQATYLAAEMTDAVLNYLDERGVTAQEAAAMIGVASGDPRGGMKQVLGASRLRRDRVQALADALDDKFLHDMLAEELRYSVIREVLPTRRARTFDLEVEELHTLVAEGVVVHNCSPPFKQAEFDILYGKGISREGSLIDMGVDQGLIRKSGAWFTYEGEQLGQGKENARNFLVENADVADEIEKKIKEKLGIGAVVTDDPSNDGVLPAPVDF
# Arbovirus anti repeat = further read-out of Arbovirus anti, marked with its call; inhibition, %; measured here: 10K subset replicate screen; many hits read low in the repeat;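 first of two repeat runs on a subset; 0% = infected and 100% = uninfected wells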
# * = called active by the depositor; u = inconclusive; x = no result given; & = joins results of further samples. Some of the compounds tested; count on the stated rates, not on these rows.
SMILES,Mtb bLac sens,YopH PTP inh,Arbovirus anti,Mtb growth,RecA splice inh,others
CCOc1ccc(OCCCC(=O)NCCOc2ccccc2OC)cc1,-1,x,x,x,-2.8,
CCCN(CCC)CCNC(=O)CCC(=O)Nc1ccc2nc(N3CCN(C)CC3)cc(C)c2c1,3,x,-5,1%,-29,
Cc1cc(F)ccc1S(=O)(=O)N1CCCCC1CCNC(=O)C(=O)NCCN1CCOCC1 (stereo unspecified),4,x,x,x,0.2,
N#C/C(=C\c1c(N2CCCCCC2)nc2ccccn2c1=O)C(N)=O,-5,x,x,x,4.5,
COCCn1nnnc1C(c1cc2cc(OC)ccc2[nH]c1=O)N1CCC(Cc2ccccc2)CC1 (stereo unspecified),96,3,-28,7.5µM*,8.2,
COc1ccc(CNC(=O)C(=O)NCC2OCCN2S(=O)(=O)c2ccc(F)cc2)cc1 (stereo unspecified),5,x,x,x,3.3,
CCN(CC)S(=O)(=O)c1cc(C(=O)n2cccn2)c(Cl)cc1Cl,1,-12,14,-7%,2.7,
CN(CCCC1CCCC1)C(=O)c1cc(COc2ccc(F)c(F)c2)on1,24,x,x,x,9.1,
Cc1cc(S(=O)(=O)NCCCN2CCOCC2)c(C)cc1Cl,-4,x,x,x,-1.7,
CC(C)NCC(O)COC1C2CC3CC(C2)CC1C3 (stereo unspecified),-5,x,-3,-1%,1.1,
CC(=O)c1ccc(S(=O)(=O)NC2CC(=O)N(c3ccc4c(c3)OCCO4)C2)cc1 (stereo unspecified),-2,x,x,x,-1.5,
CCN1CCCC1CNC(=O)C1c2ccccc2C(=O)N(CCOC)C1c1ccc(F)cc1 (stereo unspecified),4,-12,0,-2%,1.8,Arbovirus anti repeat=4
CCN(Cc1ccc(O)cc1)CC1CCCN(CCc2cccc(F)c2)C1 (stereo unspecified),-5,x,x,x,-1.0,
CC(Oc1ccccc1)C(=O)Nc1ccc(S(=O)(=O)Nc2nccs2)cc1 (stereo unspecified),-5,x,x,x,-1.9,
Cc1ccc(S(=O)(=O)N2CCSC2=Nc2ccccc2)cc1,-8,x,x,-1%,2.2,
CCCN(CC(=O)Nc1ccccc1C)C(=O)c1ccc(-c2ccc(C(C)=O)cc2)o1,-15,x,x,x,-2.2,
CCOc1ccc(/C=N/NC(=O)C2CCCC2)c(OCC)c1,-18,x,x,x,-2.1,
Cc1ccc(C(=O)NNC(=S)NC(=O)COc2ccccc2)cc1,99,-21,-27,u,-0.9,
Cc1ccc(C(=O)N/C(=C\c2cn(C)c3ccccc23)C(=O)NCCN2CCOCC2)cc1,-2,x,x,x,0.1,
CSC1=NCCN1C(=O)Cc1cccs1,0,-46,3,-11%,-0.4,
CC1CCC2(CC1)C(Nc1cccc(Cl)c1)=NC(=S)N2CC#N (stereo unspecified),3,-29,-6,-6%,10,
Cc1cc(C)c(NC(=O)CN2CCN(c3ccccn3)CC2)c(C)c1,1,x,x,x,1.9,
COc1ccc(/C=N/N(Cc2ccccc2)c2ccccc2)cc1O,24,x,-28,-4%,0.5,
Cc1nnc(SCCCN2C(=O)c3ccccc3C2=O)o1,3,-46,-2,-12%,x,
CCCc1c(C)[nH]c2ccc(C(=O)O)cc2c1=S,x,x,x,-7%,0.9,

# 2 successive compounds already listed, for reference:
SMILES,Mtb bLac sens,YopH PTP inh,Arbovirus anti,Mtb growth,RecA splice inh,others
Cc1nnc(SCCCN2C(=O)c3ccccc3C2=O)o1,3,-46,-2,-12%,x,
CCCc1c(C)[nH]c2ccc(C(=O)O)cc2c1=S,x,x,x,-7%,0.9,

# Returning to the listing, starting two compounds before the break.
SMILES,Mtb bLac sens,YopH PTP inh,Arbovirus anti,Mtb growth,RecA splice inh,others
Cc1nnc(SCCCN2C(=O)c3ccccc3C2=O)o1,3,-46,-2,-12%,x,
CCCc1c(C)[nH]c2ccc(C(=O)O)cc2c1=S,x,x,x,-7%,0.9,
CC(C)NC(=O)CSc1ncccc1-c1nc2ccccc2[nH]1,-4,x,x,x,-0.7,
O=C(N/N=C/c1cccnc1)c1[nH]ncc1Br,5,x,-7,-4%,-0.2,
O=C(c1cc2ccccc2o1)c1nc2c(n1O)CCCCC2,6,-65,2,1%,3.0,
COc1ccc(-c2c(C#N)c(N)nc3sc(C(=O)c4ccc(C)cc4)c(N)c23)cc1,2,-30,-14,10%,-4.6,
CCSc1nnc(NC(=O)c2cccnc2Cl)s1,3,-136,6,-9%,-1.1,
CC1CCC(NC(=O)C2CCN(c3c4c(nc5ncnn35)CCC4)CC2)CC1 (stereo unspecified),-14,x,x,x,-6.5,
Cc1ccc(OCC(=O)Nc2ccc3c(c2)OC(F)(F)O3)c([N+](=O)[O-])n1,12,-21,6,5%,-2.7,
COc1ccc(N2CCN(C(=O)c3ccc(COc4ccc5c(C)cc(=O)oc5c4)cc3)CC2)cc1,4,1,-1,4%,-0.9,
COc1ccc(Cl)cc1NC(=O)CN(C)C(=O)c1cc2c(s1)CCC(C)C2 (stereo unspecified),-18,x,x,x,3.4,
COC(=O)Nc1cccn(Cc2c(Cl)cccc2Cl)c1=O,3,-20,3,10%,1.3,
Cc1nc(NC(=O)CCN2C(=O)C3CC=CCC3C2=O)sc1C (stereo unspecified),-1,x,x,x,0.8,
O=C(Nc1ccccc1F)Nc1cc(Cl)ccc1-n1cncn1,1,x,x,x,0.6,
COc1ccc(Cc2nc3ccc(C(=O)N4CCC[C@H]4CO)cc3o2)cc1,-2,x,x,x,-1.7,
CC(CCc1ccccc1)NC(C)C(O)c1ccc(O)cc1 (stereo unspecified),-1,-49,13,-6%,-1.2,
O=C(Nc1sc2c(c1C(=O)c1ccccc1)CCCC2)c1cccnc1,42,-17,-7,59%,-0.7,
c1cncc(CNc2ncnc3sc4c(c23)CCCC4)c1,-1,x,6,7%,36*,
COCC(=O)Nc1nnc(Cc2ccc(OC)cc2)s1,-11,-12,6,-7%,0.5,
NS(=O)(=O)c1ccc(CCNC(=O)C(=O)NCC2OCCN2S(=O)(=O)c2cc(F)ccc2F)cc1 (stereo unspecified),3,x,x,x,-5.7,
CCOc1cccc(CN2CCC(Oc3ccc(C(=O)NCc4ccccn4)cc3)CC2)c1,-5,x,x,x,0.4,
CN(C)CCCN1C(=O)c2oc3ccccc3c(=O)c2C1c1cccs1 (stereo unspecified),u,-23,7,3%,-0.1,
CCN(CC)CCCN=Cc1c(O)n(CCc2ccc(OC)c(OC)c2)c(=O)[nH]c1=O,5,-26,4,-2%,x,
COc1ccc(N(CC(=O)NCc2ccco2)S(=O)(=O)c2c(C)nn(C)c2C)cc1,-8,-49,0,10%,-0.1,Arbovirus anti repeat=1
C/C(=N\NC(=O)C1CC1)c1ccccc1Br,1,x,x,x,0.5,
Cc1ccc(CN2C(=O)CSC2c2ccc(F)cc2)cc1 (stereo unspecified),-3,x,x,x,3.5,
Cc1ccc(O)c([C@H](CCN(C(C)C)C(C)C)c2ccccc2)c1,-5&2,x,x,-6%,0.3&-4.0,
# Remaining list, next part
SMILES,Mtb bLac sens,YopH PTP inh,Arbovirus anti,Mtb growth,RecA splice inh,others
CCOCC(=O)Nc1nc(-c2ccccc2)c(CC)s1,-3,5,-2,-7%,4.1,
COC(=O)COc1cccc(NC(=O)c2cccc(C)c2)c1,99,x,-1,u,-0.9,
COc1cc(/C=N\Nc2ccc([N+](=O)[O-])cn2)ccc1OCC(=O)O,16,x,5,5%,1.0,
Cc1nn(-c2ccccc2)c(N2CCCC2)c1/C=N/Nc1ccc(S(=O)(=O)Nc2ccccc2)cc1[N+](=O)[O-],15,-22,-16,12%,-0.5,
CN1C(=O)CSc2ccc(NC(=O)NCc3cccnc3)cc21,-5,-11,4,-5%,-1.9,
Cn1c(=O)n(Cc2ccccc2)c(=O)c2c1nc(NCC1CCCO1)n2Cc1ccccc1 (stereo unspecified),-3,-17,-9,2%,3.3,
CCn1c(=S)sc2c(=O)[nH]c(SCC(=O)Nc3cc(OC)ccc3OC)nc21,3,x,x,x,-4.6,
CC(=O)C1=C(O)C(=O)N(c2nccs2)C1c1ccc(Br)cc1 (stereo unspecified),10,-10,-6,5%,-5.1,
O=C(Nc1cccc(-c2nc3ccccc3s2)c1)C1=COCCO1,20,-25,-16,11%,-1.0,
O=C(NCCO)C1(c2ccccc2)CCCC1,-10,-3,11,1%,-1.3,
COC(=O)c1c(NC(=O)C(C)(C)C)sc2c1CCN(Cc1ccccc1)C2,-1,x,x,x,2.8,
O=c1c2ccccc2c2ccccc2c(=O)n1Cc1ccco1,-7,-2,-4,0%,5.1,
O=C(CN1C(=O)CCC1=O)NC(=O)NC1CCCC1,0,x,x,-4%,1.0,
CC1CCN(C2CC(=O)N(c3ccc(Br)cc3Br)C2=O)CC1 (stereo unspecified),-13,x,x,-1%,5.2,
CCc1ccc[n+](-c2nc3ccccc3nc2C(=C=[N-])C#N)c1,-1,x,x,1%,2.1,
O=C(c1c[nH]c2ccccc12)N1CCOCC1,-8,x,3,1%,-0.6,
COC(=O)c1cc2oc(C)cc2n1CC(=O)Nc1cc(C)cc(C)c1,-3,-5,-14,-3%,-0.4,
Cc1ccc2nc(C)c(C(=O)N/N=C/c3cccc([N+](=O)[O-])c3)cc2c1,5,-21,9,-9%,0.3,
Cc1ccc(C)c(OCC(=O)Nc2ccc(S(=O)(=O)Nc3onc(C)c3C)cc2)c1,-8,x,x,x,0.6,
O=C(CN1CCOCCOCCOCCOCC1)Nc1ccccc1,-6,-26,1,-10%,1.7,
C=C(C)C1CCC(C)=C1CC(C)(C)/C=N\n1cnnc1 (stereo unspecified),4,-33,4,-6%,1.0,
Cc1cnc(=O)[nH]c1SCc1ccccc1F,-1,x,x,x,-6.6,
CN(CCCNC(=O)C1CCN(S(=O)(=O)N2CCC3(CC2)OCCO3)CC1)Cc1ccccc1,4,6,1,1%,-0.7,
CC(C)C(=O)Nc1nnc(SCC(=O)NC2CCCC2)s1,-4,x,x,x,-1.0,
CCOC(=O)c1c(C)[nH]c(C(=O)C(C)Sc2ccc(Cl)cc2)c1C (stereo unspecified),4,2,-18,-2%,12,
Cc1ccc2c(cnn2C(=O)CCCC(=O)NCc2ccc(F)cc2)c1,2,x,x,x,-0.6,

# Of the compounds above, these contain an aryl methoxy group.
SMILES,Mtb bLac sens,YopH PTP inh,Arbovirus anti,Mtb growth,RecA splice inh,others
CCOc1ccc(OCCCC(=O)NCCOc2ccccc2OC)cc1,-1,x,x,x,-2.8,
COCCn1nnnc1C(c1cc2cc(OC)ccc2[nH]c1=O)N1CCC(Cc2ccccc2)CC1 (stereo unspecified),96,3,-28,7.5µM*,8.2,
COc1ccc(CNC(=O)C(=O)NCC2OCCN2S(=O)(=O)c2ccc(F)cc2)cc1 (stereo unspecified),5,x,x,x,3.3,
COc1ccc(/C=N/N(Cc2ccccc2)c2ccccc2)cc1O,24,x,-28,-4%,0.5,
COc1ccc(-c2c(C#N)c(N)nc3sc(C(=O)c4ccc(C)cc4)c(N)c23)cc1,2,-30,-14,10%,-4.6,
COc1ccc(N2CCN(C(=O)c3ccc(COc4ccc5c(C)cc(=O)oc5c4)cc3)CC2)cc1,4,1,-1,4%,-0.9,
COc1ccc(Cl)cc1NC(=O)CN(C)C(=O)c1cc2c(s1)CCC(C)C2 (stereo unspecified),-18,x,x,x,3.4,
COc1ccc(Cc2nc3ccc(C(=O)N4CCC[C@H]4CO)cc3o2)cc1,-2,x,x,x,-1.7,
COCC(=O)Nc1nnc(Cc2ccc(OC)cc2)s1,-11,-12,6,-7%,0.5,
CCN(CC)CCCN=Cc1c(O)n(CCc2ccc(OC)c(OC)c2)c(=O)[nH]c1=O,5,-26,4,-2%,x,
COc1ccc(N(CC(=O)NCc2ccco2)S(=O)(=O)c2c(C)nn(C)c2C)cc1,-8,-49,0,10%,-0.1,Arbovirus anti repeat=1
COc1cc(/C=N\Nc2ccc([N+](=O)[O-])cn2)ccc1OCC(=O)O,16,x,5,5%,1.0,
CCn1c(=S)sc2c(=O)[nH]c(SCC(=O)Nc3cc(OC)ccc3OC)nc21,3,x,x,x,-4.6,
